Menin MLL FP FL = menin-MLL binding inhibition, fluorescein peptide. FP activity change, % at 61.4 µM. AID 1766. 290,000 tested, under 10 active. Fluorescence polarization, fluorescein-MLL peptide displacement from menin; inconclusive = falling polarisation curve, or a change in total fluorescence; inactive = total fluorescence flat and polarisation flat or rising; no compound was filed as active; the % refers to the polarisation; negative = inhibition;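 also: % of control where 0% means no effect; inhibitors lower the polarisation; unlabelled MLL peptide was the positive control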
Sfp inh = blocks B. subtilis Sfp PPTase activity; Potency, µM, without a hit: max response, negative = inhibition, most hits filed as inhibitors; Biochemical Sfp PPTase activity, qHTS; hit rate 3.5% among 310,000; active = well fitted inhibition curve with a large enough effect; inconclusive = small, poorly fitted or top-dose-only effect, or another doubt; inactive = no such curve, though single readings can be large or run the other way;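 also: the enzyme is Sfp with the accession as filed and its product quenches rhodamine fluorescence; potency is read from the fitted curve at half-maximal effect; 0% = enzyme reaction without inhibitor and -100% = no enzyme wells; top concentration of the series not given in the record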
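Reaction rates are the 30-min fluorescence difference (ex 525, em 598 nm) in wells containing 15 nM Sfp, 5 uM rhodamine-CoA and 12.5 uM BHQ-2-YbbR at pH 7.6 with 10 mM MgCl2.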
* = called active by the depositor; ? = inconclusive; & = joins results of further samples; [ ] = another dose, or the depositor's remark. Not all compounds are listed. The share of hits here may be higher or lower than overall.

SMILES | Menin MLL FP FL | Sfp inh
CCCNC(=O)OC[C@@H]1O[C@H](CCO/N=C(\C)CCN2CCc3nc(CC)c(CC)cc3C2)C=C[C@@H]1Oc1ccc(OC)cc1 | 0.5[11.7 µM] | -3%
C#C[C@]1(O)CC[C@@H]2[C@H]3CCC4=Cc5oncc5C[C@]4(C)[C@@H]3CC[C@@]21C | -2.3[24.8 µM] | -4%
C[C@@H]1/C=C\CC(=O)OC[C@H](C)C(=O)N2CCC[C@@H]2C(=O)OC1 | -3.7[11.7 µM] | 24%
Nc1ccc(-c2ccc3ccccc3n2)cc1 | 5.7&-0.1 | -25%
FC(F)(F)c1cc(NC(=S)NC(c2ccccc2)c2ccccc2)cc(C(F)(F)F)c1 | 1.0 | 29%
COC(=O)[C@@]1(C)CCC[C@@]2(C)c3ccc(O)c(C(C)C)c3CCC21 (stereo partly specified) | 0.0 | 29%
Cc1nc2c(O)cccc2c(=O)[nH]1 | 13 | 56µM*
COC(=O)NC(c1ccco1)[C@]1(C(C)=O)CCCC1=O (stereo partly specified) | 0.9[11.7 µM] | 6%
COc1cccc(-c2nnc3n2N=C(c2ccc(OC)cc2OC)CS3)c1 | 4.0 | 45µM*
COC(=O)NC(CC(C)=O)c1ccc2c(c1)OCO2 (stereo unspecified) | -1.1[11.7 µM] | ?
Cc1cc(=O)oc2cc(NC(=O)C(CCCCN)NC(=O)C(CC3CCCCC3)NC(=O)OCC3c4ccccc4-c4ccccc43)ccc12 (stereo unspecified) | -3.3 | -10%
CCOC(=O)c1c[nH]c2cc(OCC(C)C)c(OCC(C)C)cc2c1=O | 3.7 | 16%
COC(=O)C1=C(C)[C@@H](O)[C@@H](C)[C@](C)(c2cc(OC)c(C)c(OC)c2COc2ccccc2)O1 | 1.2 | -8%
CC(=O)OC[C@H]1O[C@@H](O/N=C2/[C@H]3O[C@@H]3[C@@H](O)[C@H]3[C@H]2CCn2c(=O)n(-c4ccccc4)c(=O)n23)[C@H](OC(C)=O)[C@@H](OC(C)=O)[C@@H]1OC(C)=O | -3.3[11.7 µM] | -4%
COc1ccc(O[C@H]2C=C[C@@H](c3ccccc3)O[C@H]2COC(=O)CC/C(C)=N\O[C@@H](C)c2cc(-c3c(C)cc(C)cc3C)no2)cc1 | 5.1[11.7 µM] | -3%
CC1CCN(CCCC(=O)c2ccc(F)cc2)CC1 | -2.1 | 4%
CC(=O)OC[C@@]1(O)C[C@@]23CC[C@@H]4c5ccoc5CC[C@@]4(C)[C@@H]2CCC1C3 | 2.8 | 1%
CCCCCCCCCCCCC/C=C/C(O)C(COP(=O)(O)OCCN)NC(=O)CCCCCCCCCCCCCCCCC (stereo unspecified) | 4.3 | -1%
COc1ccccc1[C@@H]1C(c2ccc(F)cc2)=NN(c2ccc(Br)cc2)[C@H]1C(=O)N1CCOC1=O | -1.0 | 15%
COc1cc2c(cc1OC)C(c1ccc(N)cc1)=NNC(=O)C2 | -6.0 | -9%&9%
CCCCCCCCCCCCCC(=O)O[C@H](CC(=O)O)C[N+](C)(C)C | 0.6 | -20%
O=C1C(c2ccccn2)=[N+]([O-])c2ccccc21 | ? | 56µM*
Nc1nc(NCC2CCC(CNS(=O)(=O)c3cccc4ccccc34)CC2)nc2ccccc12 (stereo unspecified) | 1.0&-2.9 | 28µM*
C[C@@H]1C[C@H]2[C@H]3C[C@@H](F)C4=CC(=O)C=C[C@]4(C)[C@@]3(Cl)[C@@H](O)C[C@@]2(C)[C@@H]1C(=O)COC(=O)C(C)(C)C | 3.5[24.8 µM] | 15%
COc1ccc2c(c1)C(c1ccccc1OC)CC(=O)O2 (stereo unspecified) | -1.1[94.6 µM] | 0%
CCOC(OCC)OCC | 0.7 | -10%
CNc1ncnc2c1ncn2[C@@H]1O[C@H](CO)[C@@H](O)[C@@H]1O | -4.7[24.8 µM] | 15%
NCCC[C@@H](CC(=O)N[C@@H]1CCCC[C@H]1C(=O)N[C@H](CC(=O)N[C@@H](CCC(=O)O)CC(=O)O)Cc1ccccc1)NC(=O)C[C@H](Cc1ccccc1)NC(=O)[C@@H]1CNCC[C@H]1N | -10 | -25%
O=c1cc(-c2ccc(O)cc2)oc2c([C@H]3O[C@@H](CO)[C@@H](O)[C@@H](O)[C@@H]3O)c(O)cc(O)c12 | 1.4[24.8 µM] | -3%
Cc1cc(N(C)C)nc(Cl)n1 | ? | -5%
O=C1[C@H]2[C@H]3[C@H](O)[C@H](O)C/C(=N/OCc4ccccc4)[C@@H]3CC[C@@H]2C(=O)N1Cc1ccc2c(c1)OCO2 | 1.8[11.7 µM] | 11%
C#CCCCO/N=C1/C[C@@H](O)[C@@H](O)[C@@H]2[C@@H]3C(=O)N(Cc4ccccc4)C(=O)[C@H]3CC[C@@H]12 | -0.4[11.7 µM] | 17%
COc1ccc(-c2nc3c(c4c2C[C@H](c2ccccc2)OC4)CN(C(=O)Cc2cccs2)CC3)c(C)c1 | 4.3[11.7 µM] | -3%
C=C(C)C1CCC(C)C(OC(C)=O)C1 (stereo unspecified) | 0.6 | 5%
CC(=O)OCC(=O)[C@@]12OC3(CCCC3)OC1CC1C3CCC4=CC(=O)C=C[C@@]4(C)[C@]3(F)C(O)C[C@]12C (stereo partly specified) | -2.4 | -7%
CCOC(=O)CCCNC(=O)N1CCc2nc(COc3ccccc3)c3c(c2C1)CO[C@@H](C)C3 | -4.0[11.7 µM] | 7%
CCC[C@@H]1C[C@@]1(CCC)C(NC(=O)c1ccco1)c1ccc(Cl)cc1 (stereo partly specified) | 9.2 | 12%
CCCCCCCC#Cc1ccccc1C(NC(=O)OC)C(C(=O)OC)C(=O)OC (stereo unspecified) | -5.4[11.7 µM] | 16%
COC(=O)[C@H](Cc1ccccc1)NC(=O)O[C@@H]1C(=O)c2ccc(OC)cc2O[C@H]1c1cccc(C(F)(F)F)c1 | -1.1 | -7%
CCC/C=C(\CCC)C(NC(=O)C(C)(C)C)c1ccc(C(=O)OC)cc1 (stereo unspecified) | -3.1 | 17%
CC/C=C\C/C=C\C/C=C\C/C=C\C/C=C\C/C=C\CCC(=O)NCCO | 0.4 | -24%
O=C(Cc1cccs1)NC1C(=O)N2C(C(=O)[O-])=C(C[n+]3ccccc3)CSC12 (stereo unspecified) | ? | ?
CC(N)=NCc1cccc(CN)c1 | 4.5&-5.3&9.8 | -2%&24%&4%
C[C@H](N)C(=O)N[C@@H](C)P(=O)(O)O | 1.1 | 6%
CC(C)(C)NC(=O)[C@@H]1CC[C@@H]2[C@@H]3CC[C@@H]4NC(=O)C=C[C@@]4(C)[C@H]3CC[C@]21C | 2.7[24.8 µM] | 23%
CC(C)NC[C@@H](O)COc1ccc(COCCOC(C)C)cc1 | ? | 21%&18%
CC(C)C[C@H](NC(=O)[C@H](CCCCN)NC(=O)[C@H](CCC(N)=O)NC(=O)[C@H](Cc1cnc[nH]1)NC(=O)[C@H](Cc1cnc[nH]1)NC(=O)[C@@H](N)C(C)C)C(=O)N[C@H](C(=O)N[C@@H](Cc1ccccc1)C(=O)N[C@@H](Cc1ccccc1)C(=O)N[C@@H](C)C(=O)N[C@@H](CCC(=O)O)C(=O)N[C@@H](CC(=O)O)C(=O)N[C@H](C(=O)NCC(=O)N[C@@H](CO)C(=O)N[C@@H](CC(N)=O)C(=O)N[C@@H](CCCCN)C(=O)O)C(C)C)C(C)C | 0.3 | 31%[activator]
C[C@@H]1CC[C@@]2(OC1)OC1CC3C4CC=C5CC(O)CCC5(C)C4CCC3(C)C1[C@@H]2C (stereo partly specified) | -10 | 1%
OC[C@@H](O)C(O[C@@H]1O[C@@H](CO)[C@H](O)[C@H](O)[C@H]1O)[C@H](O)[C@@H](O)CO (stereo partly specified) | 1.4 | 8%
C[C@@](O)(/C=C/[C@H]1CC=CC(=O)O1)[C@@H](C[C@@H](O)\C=C/C=C\C=C\CO)OP(=O)(O)O | -0.8[11.7 µM] | 2%
COc1ccc(COC2OC[C@]3(C)[C@H]4C5=C(CN3C(=O)OC(C)(C)C)[C@H](C)C(CO)C(CO)C5CC[C@@H]24)cc1 (stereo partly specified) | 0.8 | 20%
NCCNS(=O)(=O)c1cccc2cnccc12 | -4.5&-0.3&7.3 | -6%&6%&-18%
COC(=O)c1ccccc1S(=O)(=O)N1CCc2nc(-c3ccc(OC)cc3C)c3c(c2C1)CO[C@@H](c1ccccc1)C3 | 1.2[11.7 µM] | -12%
COCCNC(=O)[C@H](C)[C@@H]1C[C@@]1(C)[C@@H](NC(=O)OCc1ccccc1)c1ccccc1 | -2.9 | -2%
NC(=O)c1ccccc1C[C@H](C(=O)O)N1C(=O)c2ccc(C(=O)O)cc2C1=O | -8.2 | 6%
CC[C@H](C)[C@H](NC(=O)CNC(=O)[C@H](CCCNC(=N)N)NC(=O)[C@H](CO)NC(=O)[C@H](C)NC(=O)[C@H](Cc1ccc(O)cc1)NC(=O)[C@H](Cc1c[nH]c2ccccc12)NC(=O)[C@H](C)NC(=O)[C@@H]1CCCN1C(=O)[C@H](CC(N)=O)NC(=O)[C@@H](NC(=O)[C@H](CC(=O)O)NC(=O)[C@@H]1CCCN1C(=O)[C@@H](N)[C@@H](C)O)[C@@H](C)CC)C(=O)N[C@@H](CCCNC(=N)N)C(=O)N1CCC[C@H]1C(=O)N[C@H](C(=O)NCC(=O)N[C@@H](CCCNC(=N)N)C(=O)N[C@@H](Cc1ccccc1)C(N)=O)C(C)C | 0.0 | ?
O=C1C2=CC[C@H]3C(=O)N(C[C@@H]4CCCO4)C(=O)[C@@H]3[C@@H]2[C@H](O)[C@@H]2O[C@H]12 | -23[11.7 µM] | -12%
CC1=C(C(=O)OCc2ccccc2)C(C2CC2)NC(=O)N1CCCCCC(=O)O (stereo unspecified) | 0.3 | 2%
CC#CCN1c2ccccc2[C@]23C[C@@H](C(=O)OC)N(S(=O)(=O)CCCC)C2=NC(C(=O)OC)=C(C(=O)OC)[C@H]13 | -2.5[11.7 µM] | -11%
Cc1cn2c(=O)c3ccccc3nc2n2c(=O)c3ccccc3nc12 | -2.3 | -3%

Carrying on:
SMILES | Menin MLL FP FL | Sfp inh
CCc1cccc2nc3c(c([Si](CC)(CC)CC)c12)Cn1c-3cccc1=O | 10 | 79µM*
O=C1C(=O)N(Cc2ccc(Cl)c(Cl)c2)c2ccccc21 | -4.9 | 50µM*
COc1cccc(OC)c1C(=O)NC1C(=O)N2C1SC(C)(C)C2C(=O)O (stereo unspecified) | 3.2 | 15%
CC(N)C(O)c1cccc(O)c1 (stereo unspecified) | -1.9 | 11%
CC(C)=CCC1=C(O)c2ccccc2C(=O)C1=O | -8.1&6.6 | -9%&4%
COc1ccc(-c2nnc3n2N=C(c2ccc(OC)cc2OC)CS3)cc1 | 4.6 | 9%
C#C[C@]1(O)CC[C@H]2[C@H]3CCc4cc(O)ccc4[C@@H]3CC[C@@]21C | ? | 1%
COC(=O)[C@@]1(Cc2ccc(OC)cc2)[C@H]2c3cc(C(=O)N4CCCC4)n(Cc4cc(F)cc5c4OCOC5)c3C[C@H]2CN1C(=O)c1ccccc1 | 6.9 | 12%
CCCCc1nc2c(c3c1C[C@H](C)OC3)CN(C(=O)c1ccco1)CC2 | 1.0[11.7 µM] | -2%
COc1ccc(O[C@H]2C=C[C@@H](c3ccccc3)O[C@H]2COC(=O)CC/C(C)=N/OCC[C@@H]2C=C[C@H](OC(C)=O)[C@H](COC(C)=O)O2)cc1 | -3.7[11.7 µM] | -1%
Cc1ccc(S(=O)(=O)NC(=O)NC2CCCC2)cc1 | -1.4 | 13%
COC(=O)[C@@]1(Cc2ccc(OC)cc2)[C@H]2c3cc(C(=O)N(C)C)n(CCN4CNCC4=O)c3C[C@H]2CN1C(=O)c1ccccc1 | 1.4 | 14%
NC1=NCCN1CC(=O)O | -1.8 | 7%
COc1cccc([C@@H]2Oc3ccc(Br)cc3C(=O)[C@H]2OC(=O)NS(=O)(=O)c2ccc(F)cc2)c1 | ? | -5%

Compound activity as filed in PubChem BioAssay.
